# HPGD inh – qHTS Assay for Inhibitors of HPGD (15-Hydroxyprostaglandin Dehydrogenase); 4.3% of 150,000 active; purified HPGD, NADH fluorescence kinetic, PGE2 substrate; Potency, µM, for the others: at the top dose activity change, negative = inhibition, hits mostly inhibitors; 15-hydroxyprostaglandin dehydrogenase [NAD(+)] (Homo sapiens), P15428; active = well fitted inhibition curve with a large enough effect (not every such curve was filed as active); inconclusive = small, poorly fitted or top-dose-only effect, or another doubt; inactive = no such curve, though single readings can be large or run the other way;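 note: top concentration of the series not given in the record; plate controls included wells without enzyme; inactives centre near -10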
# Target sequence (P15428 whole entry, looked up): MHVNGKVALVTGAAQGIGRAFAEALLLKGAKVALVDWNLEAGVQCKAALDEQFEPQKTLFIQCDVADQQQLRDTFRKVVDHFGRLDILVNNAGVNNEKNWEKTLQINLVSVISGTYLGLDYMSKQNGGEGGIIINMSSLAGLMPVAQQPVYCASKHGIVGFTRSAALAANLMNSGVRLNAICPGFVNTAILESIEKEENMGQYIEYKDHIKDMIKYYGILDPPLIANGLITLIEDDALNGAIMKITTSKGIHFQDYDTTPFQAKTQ
#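 20 nM HPGD preincubated 15 min at room temperature with compound in 50 mM Tris-HCl pH 8, 0.01% Tween 20. Started with 1 mM NAD+ and 30 uM prostaglandin E2; NADH fluorescence (360/450 nm) read 5 times over 30-s intervals, last minus first.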
# Numbers without * were called inactive; ? = inconclusive; & = joins results of further samples. % is set by controls: 0 for no effect and ±100 for the full control effect; potency is the fitted concentration of half-maximal effect.
SMILES,HPGD inh
COc1ccc(C(=O)N2CCC3(CCN(Cc4cc(C(F)(F)F)cc(C(F)(F)F)c4)CC3)CC2)cc1,-15%
CCC(C)c1ccc(O)c(NC(=O)c2cccnc2)c1 (stereo unspecified),-10%
COc1ccc(-c2ccc(CCC(=O)O)n2NC(=O)c2cccs2)cc1,-4%
COc1ccc(C(=O)Nc2cccc(C(C)=O)c2)cc1OC,-13%
COc1ccc(C(CC(=O)NC(C)(C)C)n2cccc2)cc1 (stereo unspecified),-9%
COc1cccc([C@@H]2Oc3ccc(Br)cc3C[C@H]2OC(=O)NS(=O)(=O)c2ccc(C)cc2)c1,-20%
COc1ccc([N+](=O)[O-])cc1COc1cc(C)cc2oc(=O)cc(-c3ccccc3)c12,-23%
CC1(C)c2ssc(=S)c2-c2ccccc2N1C(=O)CSC1=NCCS1,-9%
COc1ccc(-c2nc(CSCC(=O)NCCC3=CCCCC3)c(C)o2)cc1OC,-17%
CCOC(=O)c1c(-c2ccccc2)nc2cc(C)ccn12,-20%
c1ccc(-c2cc(N3CCOCC3)nc3ccccc23)cc1,?
Cc1ccc(NC(=O)CCC(=O)NNC(=O)COc2ccccc2)c(C)c1,-2%
COc1ccc(OC)c(CCNC(=O)CS(=O)(=O)Cc2nc(-c3ccccc3C)oc2C)c1,-23%
Cn1c(=O)c2c(ncn2CC(=O)Nc2nnc(Cc3ccccc3)s2)n(C)c1=O,-16%
COc1ccccc1C1C2CCCCC2(O)CCN1CC(=O)Nc1ccccc1 (stereo unspecified),-6%
Cn1c(=O)[nH]c(=O)c2c1nc(SCCN1CCOCC1)n2Cc1ccccc1,-22%
CC(C)(C)C(=O)CN1CCN(S(=O)(=O)c2ccc(F)cc2)CC1,-2%
O=C(Cn1nc(-c2ccc(N3CCOCC3)c([N+](=O)[O-])c2)c2ccccc2c1=O)N1CCCCC1,-16%
Cc1cc(O)c(-c2cc(C(=O)Nc3ccc(S(=O)(=O)N4CCOCC4)cc3)[nH]n2)cc1C,-2%
COc1ccccc1CC(=O)Nc1ccc(-c2nnc(-c3ccco3)o2)cc1,?
Cc1sc2nc(-c3ccco3)oc(=O)c2c1C,?
CC1(C)Oc2ccc(C(=O)NC3CCCC3)cc2N(CC(=O)NC2CCCCC2)C1=O,-13%
Cc1cc(C)cc(N(CC(=O)NCc2ccco2)C(=O)CCC(=O)Nc2ccccn2)c1,-8%
O=C(/C=C/Nc1ccc(F)cc1)c1ccco1,0%
CCOc1c(Cl)cc(CNCC(C)C)cc1OC,-4%
O=C1CCCc2nc(N3CCCCC3)sc21,-13%
N#C/C(=C/C=C/c1ccccc1)C(=O)Nc1ccccc1,?
Cc1cccc2sc(NC(=O)C3=NN(c4ccccc4)C(=O)CC3)nc12,-8%
COCCn1c(=O)[nH]c2cc(C(=O)OC)ccc2c1=O,?
Cn1c(C(=O)N2COCC2(C)C)cc2c(=O)n3ccccc3nc21,?
N/C(=N\OC(=O)c1cc(-c2ccccc2)nc2ccccc12)c1ccncc1,-1%
Cc1ccc(C)c(C(=O)COc2ccc(C)nc2[N+](=O)[O-])c1,-16%
CCSc1nnc(NC(=O)Cc2ccc(OC)c(S(=O)(=O)N3CCOCC3)c2)s1,-9%
CCCCC(=O)Nc1ccc(Cl)cn1,-4%
Cc1ccc(-n2nc(N)c3c(=O)oc(N(C)C)nc32)cc1,-22%
Cc1nnc(NC(=O)CSc2nnc(Cc3cccn3C)n2-c2cccc(C)c2C)s1,-8%
CCCn1c(=O)c(C(=O)c2ccccc2)nc2ccccc21,-2%
C/C=C(\C)C(=O)OC1c2c(ccc3ccc(=O)oc23)OC(C)(C)C1OC(C)=O (stereo unspecified),-15%&-5%
Cc1nnc(SCC(=O)N2c3ccccc3CC2C)[nH]c1=O (stereo unspecified),-26%
COC(=O)c1ccc(NC(=O)CN(C2CCCCC2)S(C)(=O)=O)cc1,-6%
O=C(Nc1ccc(Br)cc1)c1cccc(NC(=O)C2C3CC4OC(=O)C2C4C3)c1 (stereo unspecified),-12%
O=C(c1cc2nc(-c3ccccc3)cc(C(F)(F)F)n2n1)N1CCOCC1,?
COC(=O)[C@@H]1C[C@H]1[C@@H](NS(=O)(=O)c1ccc2ccccc2c1)c1ccccc1,-9%
Cc1nc(-c2ccccc2)sc1-c1nc(-c2cccs2)ncc1S(=O)(=O)c1ccccc1,?
COC(=O)/C=C1/S/C(=N/NC(=O)c2ccccc2C)NC1=O,?
COc1ccc(CCN2C(=O)CC(Nc3ccc(N4CCOCC4)cc3)C2=O)cc1OC (stereo unspecified),-5%
COc1ccccc1CN(Cc1ccco1)S(=O)(=O)c1ccc(-n2cnnn2)c(OC)c1,-19%
COCCN(C(=O)Cc1cccs1)C(C(=O)NCc1ccc(OC)cc1)c1ccc(C(C)C)cc1 (stereo unspecified),-23%
O=C1C2=C(c3ccccc31)[N+](=O)[C@@H]1CCCC[C@@H]1N2[O-],-8%
N#Cc1ncc(-c2ccc3c(c2)OCCOCCOCCOCCOCCO3)nc1C#N,-1%

# The list goes on.
SMILES,HPGD inh
O=C(COc1ccc(Cl)cc1)NC1=NN(c2ccccc2)C(=O)C1,-7%
CCOc1ccccc1-c1nc(-c2ccc(NC(=O)c3ccc(Br)o3)cc2)no1,?
COc1cc(NC(=O)CN2CCN(S(=O)(=O)c3ccc(C(C)C)cc3)CC2)cc(OC)c1,-14%
O=C(O)CN1C(=O)COc2cc(S(=O)(=O)N3CCCC3)ccc21,2%
COc1ccc(Cl)cc1NC(=O)C1CSC(c2ccncc2)=N1 (stereo unspecified),-7%
CC(=O)Nc1ccc(C(=O)/C=C/c2ccco2)cc1,-27%
CC(=O)Nc1ccc(NC(=O)Cn2cc3c(n2)CCCC3)cc1,-7%
NC1=NC(c2ccc(Br)cc2)n2c(nc3ccccc32)N1 (stereo unspecified),-23%
CC1=C2C(=COC(C)C2C)C(=O)C(C(=O)O)=C1O (stereo unspecified),-5%
O=C(CNC(=S)N(Cc1ccccc1F)C1CCCCC1)NC1CC1,-6%
COC(=O)c1ccc2nc(Nc3nc4c(F)cc(F)cc4s3)sc2c1,?
CCc1nccn1S(=O)(=O)c1ccc(OC)c(C)c1C,-5%
COc1ccc(C)cc1S(=O)(=O)N(CC(=O)O)c1ccc(F)cc1,-7%
CC1(C)CC(=O)C2=C(C1)N(c1ncn[nH]1)C(N)=C(C#N)C2c1ccccc1 (stereo unspecified),-7%
Cc1nc2cc(C(=O)OCC(=O)NC3CCS(=O)(=O)C3)ccc2n1-c1ccccc1 (stereo unspecified),-14%
Cc1cccc(NC(=O)CSc2ccc(-c3cccs3)nn2)c1C,-16%
CN1CCc2c(sc3nc(SCC(N)=O)n(-c4ccccc4)c(=O)c23)C1,?
COc1ccccc1NC(=O)Cc1noc(CSc2cc(C)c3ccccc3n2)n1,-24%
Cc1ccnc(NS(=O)(=O)c2ccc(NC(=O)c3cncc(Br)c3)cc2)n1,-9%
CC(C)(C)OC(=O)NCC(=O)N1CCC(C(=O)O)CC1,-3%
CCOC(=O)c1ccc(CNCc2ccc(C)cc2)cc1,-7%
C=C1CCC(=O)C(C)CCC2C1CC2(C)C (stereo unspecified),-11%
CCN(CCCNC(=O)CC1Oc2ccc(C)cc2NC1=O)Cc1ccccc1 (stereo unspecified),-15%
Cc1cc(=O)c2ccc(Cl)cc2[nH]1,-20%&-13%
COC(=O)c1sccc1NC(=O)c1cc(-c2ccc(C)cc2)nc2ccccc12,-15%
COc1ccc2cc3c(N)nn(C(=O)Cc4ccccc4OC)c3nc2c1,-1%
COC(=O)Cn1c(C)nc2c(sc3nc(C)cc(C)c32)c1=O,-6%
Cc1onc(-c2ccccc2Cl)c1C(=O)NCc1ccc(N2CCCC2=O)cc1,-5%
O=C(CSc1ncn[nH]1)c1ccco1,25µM*
CCOC(=O)C(=O)Nc1cc(Cl)ccc1C,0%
Cc1ccc(-c2nnn(Cc3nc4ccccc4s3)n2)cc1,-9%
COc1ccc(/C=N/NC(=O)CN2CCSCC2)c(OC)c1,-17%
Cc1cc(C)c2nc(NC3=NCN(CCN4CCOCC4)CN3)nc(C)c2c1,-9%
COc1ccc(N2CC(NC(=O)NCCC(C)C)CC2=O)cc1 (stereo unspecified),0%
C=C(C)c1cccc(C(C)(C)NC(=O)N2CCN(CC(N)=O)CC2)c1,2%
COc1ccc(C2SCC(=O)N2CC23CC4CC(CC(C4)C2)C3)cc1 (stereo unspecified),-11%
O=C(CNS(=O)(=O)c1cccs1)N1CCc2ccccc2C1,-6%
NC(N)=NC(N)=Nc1ccccc1 (tested in a mixture with another compound),-6%
COc1ccc(/C=N/NC(=O)Cn2nnc3ccccc32)cc1OC,?
O=S(CCc1ccncc1)Cc1ccccc1 (stereo unspecified),-3%
CCn1c2ccccc2c2nnc(SCC(=O)Nc3ccc4c(c3)OCO4)nc21,-23%
O=C(COC(=O)c1ccccn1)Nc1ccc(S(=O)(=O)N2CCOCC2)cc1,0%
CCN1C2=NCCCN2c2ccccc21,-2%
Cc1ccc(-c2ccc(=O)n(CC(=O)NCCN(C)C)n2)cc1,-26%
Cc1ccccc1CN(c1ccc(C(=O)NCCC2=CCCCC2)cc1)S(C)(=O)=O,-20%
O=C(NCCO)c1cccc2c1C(=O)c1ccccc1-2,-10%
C=C1C2CC[C@@]3(C)C(c4ccoc4)OC(=O)C[C@@]13OC1CC(=O)C(C)(C)C(CC(=O)OC)[C@]12C (stereo partly specified),-2%
Cc1ccccc1NC(=O)Cc1nc(CCl)cs1,20µM*
COc1cc(C(=O)NCc2ccc3c(c2)OCO3)ccc1OCc1c(C)noc1C,-4%
CCCCOC(=O)Nc1ccc(C(=O)OC)cc1,-23%

# Continued:
SMILES,HPGD inh
O=C(NCCCCCCNC(=O)NCc1ccco1)NCc1ccco1,-9%
O=C(CCCC(=O)OCC(=O)NC1CCCC1)Nc1ccccn1,-4%
COc1ccc(/C(O)=C2\C(=O)C(=O)N(CCN(C)C)C2c2cccc(OC)c2OC)cc1Cl (stereo unspecified),-11%
NCCNc1ccc([N+](=O)[O-])c(Sc2nc3ccccc3[nH]2)c1,-7%
Cc1ccc(C(=O)N2CCN(c3cc(=O)[nH]nc3-c3ccccc3)CC2)cc1,0%
CCOc1ccc(C(=O)N2CCN(c3ccccc3)CC2)cc1OCC,2%
CNC(=O)c1nc(C)n(-c2cc(Cl)ccc2Cl)n1,-21%
O=C(O)c1ccc(N=NN2CCCCCC2)cc1,-18%
CC(C)CN(C(=O)CCc1ccccc1)c1c(N)n(CC(C)C)c(=O)[nH]c1=O,-12%
O=C(Nc1ccccc1)c1ccc(NCC2CCCO2)c(S(=O)(=O)N2CCOCC2)c1 (stereo unspecified),-23%
Cc1ccc(NC(=O)CCC(=O)NNC(=O)/C=C/C(=O)O)c(C)c1,1%
Nc1ccn([C@H]2CS[C@@H](CO)O2)c(=O)n1,-8%
Cn1ncc2c1ncn1nc(COc3ccc4ccccc4c3)nc21,-15%
COc1ccc(C2C3=C(CC(C)(C)CC3=O)Oc3ncn(CCO)c(=N)c32)cc1OC (stereo unspecified),-1%
N#C/C(=C\c1ccc(-c2ccc([N+](=O)[O-])cc2Br)o1)C(=O)N1CCN(c2ccccc2)CC1,?
COCCn1nnnc1CN1CCN(c2cccc(C(F)(F)F)c2)CC1,6%
COc1ccc(N=C2S/C(=C\c3ccco3)C(=O)N2CC(C)C)cc1,-1%
COc1ccc2c(c1)CN([C@H](C)[C@@H]1CC[C@@H]3[C@H]4CC[C@H]5C[C@@H](O)CC[C@@]5(C)[C@H]4CC[C@]31C)CO2,-4%
CC/C(O)=C(\C#N)c1nnc2n1CCCCC2,-2%
COc1ccccc1NC(=O)Nc1nc(-c2cccnc2)nc2ccccc12,-7%&1%
CCc1nnc(NC(=O)C2Cc3ccccc3CN2S(=O)(=O)c2ccc(C)cc2)s1 (stereo unspecified),-2%
CCCCN(C)C(=O)c1oc2ccc(S(=O)(=O)N3CCCCCC3)cc2c1C,-12%
c1ccc(C[C@@H](Nc2cccnc2)c2ccccc2)cc1,-1%
COC(=O)c1ccccc1NC(=O)C1CCC(=O)N1S(=O)(=O)c1ccc(C)cc1 (stereo unspecified),-5%
CCCN(CC1CC1)C(=O)CSc1nnc(-c2cc(-c3cccs3)nc3ccccc23)o1,?
O=[N+]([O-])c1cc(S(=O)(=O)N2CCCC2)ccc1N/N=C/c1cccnc1,-4%
Cc1cc(Cl)ccc1OCC(=O)OCC(=O)Nc1ccc(F)c([N+](=O)[O-])c1,-8%

# Pulled by structure from the entries so far:
SMILES,HPGD inh
O=C(COc1ccc(Cl)cc1)NC1=NN(c2ccccc2)C(=O)C1,-7%
COC(=O)[C@@H]1C[C@H]1[C@@H](NS(=O)(=O)c1ccc2ccccc2c1)c1ccccc1,-9%
O=C1CCCc2nc(N3CCCCC3)sc21,-13%
CCn1c2ccccc2c2nnc(SCC(=O)Nc3ccc4c(c3)OCO4)nc21,-23%
O=C(Nc1ccccc1)c1ccc(NCC2CCCO2)c(S(=O)(=O)N2CCOCC2)c1 (stereo unspecified),-23%
NC(N)=NC(N)=Nc1ccccc1 (tested in a mixture with another compound),-6%
CCCCC(=O)Nc1ccc(Cl)cn1,-4%

# Source: PubChem

# Only part of the results is shown; rates above refer to the full screens.
